VDR inhibitor: blocks the human vitamin D receptor | P11473 | VDR-SRC2-3 peptide fluorescence polarization, 2 h | Potency, µM, for the others: max response, negative = inhibition, hits mostly inhibitors | actives 0.93% (n = 400,000); active = well fitted inhibition curve with a large enough effect; inconclusive = small, poorly fitted or top-dose-only effect, or another doubt; inactive = no such curve, though single readings can be large or run the other way; note: series mostly up to about 120 µM
Target sequence (P11473 whole entry, looked up): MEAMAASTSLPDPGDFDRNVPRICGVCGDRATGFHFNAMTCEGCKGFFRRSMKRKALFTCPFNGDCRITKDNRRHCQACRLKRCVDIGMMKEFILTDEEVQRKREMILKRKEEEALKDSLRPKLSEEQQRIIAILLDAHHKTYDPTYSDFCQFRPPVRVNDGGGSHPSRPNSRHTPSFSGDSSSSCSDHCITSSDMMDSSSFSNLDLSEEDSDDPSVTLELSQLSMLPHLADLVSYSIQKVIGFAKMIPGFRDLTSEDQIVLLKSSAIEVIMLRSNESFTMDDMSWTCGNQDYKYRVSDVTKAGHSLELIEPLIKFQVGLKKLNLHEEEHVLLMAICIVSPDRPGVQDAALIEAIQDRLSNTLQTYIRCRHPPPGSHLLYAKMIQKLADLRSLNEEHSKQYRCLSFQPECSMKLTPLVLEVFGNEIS
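After 23 nl compound addition and a short centrifugation, plates sat for 2 hours at ambient temperature; polarization of fluorescence then indicated loss of VDR binding to peptide SRC2-3.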
The depositor's hits bear a star; ? = inconclusive; & = joins results of further samples. % is set by controls: 0 for no effect and ±100 for the full control effect; potency is the fitted concentration of half-maximal effect.

entry	SMILES	VDR inhibitor
1	O=C(N/C(=C\c1cccs1)C(=O)N1CCOCC1)c1ccco1	-8.1%
2	C/C=C\C(=O)Nc1cccc(C2=NOC3(C2)C[C@@H](C(N)=O)N(C(=O)CC(c2ccccc2)c2ccccc2)C3)c1 (some centres undefined)	12.6%
3	Cn1c2ccccc2c2c(C(=O)NCCCN3CCCC3=O)cn(C3CCCCC3)c(=O)c21	0.9%
4	O=C(COc1ccc(Cl)cc1)Nc1nnc(S(=O)(=O)N2CCCCCC2)s1	-8.5%&-1.2%
5	CCN(CC)c1nc(Nc2ccc([N+](=O)[O-])cc2)nc(N(CC)CC)n1	11.8%
6	COC(=O)c1ccccc1C(=O)N1CC(O)CO1 (centres undefined)	7.5%
7	CC1CC(C)CN(C(=O)C(C)N(C)CC(=O)Nc2ccccc2Cl)C1 (centres undefined)	8.5%
8	O=C(CCn1nc(-c2ccc(Cl)cc2)ccc1=O)N1CCOCC1	17.5%
9	COc1ccc(N(C(C)=O)S(=O)(=O)c2cccc3cccnc23)cc1	4.2%
10	CCOC(=O)C1CCN(C(=O)CCC2CCCC2)CC1	-13.8%
11	Cc1ccc2[nH]cc(C(=O)CN3CCN(C)CC3)c2c1	-1.9%
12	CCCCN(C)S(=O)(=O)c1ccc(C(=O)Nc2sc3c(c2C(=O)OCC)CCN(C(C)C)C3)cc1	9.5%
13	COc1ccc(Nc2nc(N)nc(CSc3nncn3C)n2)cc1	-2.1%
14	COc1cccc(CNC(=O)CCC(=O)N2CC(C)Sc3ccccc32)c1 (centres undefined)	6.4%
15	Cc1ccc(C(=O)CSc2nc(C)cc(C)c2C(N)=O)cc1	4.2%
16	COc1cc(Nc2ccccc2Cl)c([N+](=O)[O-])nc1[N+](=O)[O-]	3.1%
17	CC(=O)c1cccc(CN2CCC(n3nccc3NC(=O)c3ccc4c(c3)OCO4)CC2)c1	-1.7%
18	Cn1c(CCCCCN)nc2ccccc21	1.4%
19	O=c1c(-c2cccc(Cl)c2)nc2cncnc2n1C1CC1	0.5%
20	CCOC(=O)c1cc(NC(=O)Nc2ccc(OC)c(OC)c2)c(C)nc1C	-3.5%
21	COC(=O)c1ccccc1NC(=O)CCC(=O)N1CCSc2ccccc21	7.4%
22	CCOc1ccc2oc(C(=O)OCC(=O)NC3CCCCC3)c(C)c2c1	11.0%
23	O=C(NNS(=O)(=O)c1ccc(Br)cc1)C1CCCCC1	3.1%
24	CCOC(=O)c1ccc(S(=O)(=O)N2CCN(CC3CC=CCC3)CC2)cc1 (centres undefined)	3.7%
25	COc1ccc(N(C(=O)c2cccc(OC)c2OC)C2C=CS(=O)(=O)C2)c(OC)c1 (centres undefined)	0.2%
26	CCOC(=O)CNC(=O)CSc1nnc(-c2ccccc2)c(-c2ccccc2)n1	-7.6%
27	O=C(Cc1ccccc1)N1N=C(c2ccncc2)CC1(O)C(F)(F)F (centres undefined)	-1.9%
28	COc1ccc(OC)c(NC(=O)c2cc(S(=O)(=O)N3CCCC3)cn2C)c1	-6.8%
29	Cc1cc(NC(=O)CSc2nnnn2-c2ccc(C(C)C)cc2)no1	-29.7%
30	O=C(CCN1C(=O)c2ccccc2S1(=O)=O)Nc1cccc2ccccc12	-1.7%
31	O=C(CCN1CCOCC1)Nc1ccc(Cl)cc1	-6.7%
32	CC(=O)Nc1ccc(NS(=O)(=O)c2ccc3c(c2)CCCN3C(C)=O)cc1	7.8%
33	CCNC(=O)c1c(C)[nH]c(C(=O)OCC)c1C	12.0%
34	Nn1c(SCc2ccc(F)cc2)nnc1-c1ccccn1	-13.1%
35	FC(F)(F)c1ccc(NC(=S)NC2CCCCC2)cc1	3.6%
36	COc1ccc(NC(=O)CC2C(=O)N(c3ccc(Cl)cc3)C(=S)N2NC(=O)c2cccc(F)c2)cc1 (centres undefined)	10.5%
37	O=C(Cc1ccc(S(=O)(=O)N2CCOCC2)s1)Nc1nc2c(s1)CCCC2	-7.8%
38	CCOc1ccc(OCCn2c(=S)[nH]c3c(N)ncnc32)cc1	-28.5%
39	O=C(NCCCCc1ccccc1)NC[C@@H]1CC[C@@H](Cc2ccc(-c3ccccc3)cc2)O1	-12.1%
40	COc1ccc(OC)c(NC(=O)c2cc(-c3ccc(Cl)s3)nc3ccccc23)c1	-13.8%
41	CCNc1ncc2nc(-c3cn(C)c4ccccc34)c(=O)n(CCC#N)c2n1	-7.9%
42	CCC(=O)Oc1ccc(C2Nc3ccccc3-c3nnc(SC)nc3O2)cc1 (centres undefined)	-11.5%
43	CC1(C)Cc2c(C#N)c(SCC(=O)c3ccccc3)nc(N3CCOCC3)c2CS1	-12.0%
44	Cc1[nH]c2ccccc2c1C(=O)CN1CCN(c2ccc(Cl)cc2)CC1	-14.1%
45	CCOc1ccc(CCNC(=O)CCCc2cc(-c3ccc(OCC)cc3)on2)cc1	0.1%
46	COc1ccc(-c2c(C)[nH]n3c(=O)c(Cc4ccccc4)c(C)nc23)cc1OC	10.4%
47	Cc1cc(C)n(CC(=O)O)c(=O)c1[N+](=O)[O-]	?
48	CC(C)(C)Nc1nc(N)nc(Cl)n1	-16.2%
49	Cc1cccc2c(C(=O)n3cccn3)cc(-c3ccccc3Cl)nc12	0.7%
50	S=C1NC[C@H](CC2CCCCC2)N1CCCCC1CCCCC1	2.5%
51	Cc1nnc(NC(=O)c2ccc(-c3ccc([N+](=O)[O-])cc3)o2)s1	0.4%
52	c1ccc(Oc2c3ccccc3nc3ccccc23)cc1	44.7µM*
53	Cn1c(N2CCCC2)nc2c1c(=O)[nH]c(=O)n2C	-3.8%
54	CC(=O)C1=C(O)C(=O)N(CCC(=O)O)C1c1ccccc1Cl (centres undefined)	-8.5%
55	COc1ccc(F)cc1S(=O)(=O)n1cnc2ccccc21	0.5%
56	O=C(NNC(=O)c1cccs1)c1ccc(Cl)cc1	4.8%
57	Cc1ccc(NC(=O)Cn2c(=O)n(Cc3ccco3)c(=O)c3ccccc32)c(C)c1	7.1%&1.6%
58	CC1CN(c2nc3ccccc3nc2SCC(=O)Nc2ccc(F)cc2)CC(C)O1 (centres undefined)	-21.3%
59	O=S(=O)(c1cccc(-c2cn3ccccc3n2)c1)N1CCCC1	?
60	OCC1(CCCc2ccccc2)CCN(Cc2cnc(N3CCOCC3)s2)CC1	6.4%

Going on with the list:
entry	SMILES	VDR inhibitor
61	CCC(NC(=O)c1oc2ccccc2c1COC)c1ccc(OC)cc1 (centres undefined)	-8.9%
62	O=C(NCc1ccccc1)C1CCN(S(=O)(=O)N2CCCCCC2)CC1	-9.1%
63	CNC(=O)C(=O)Nc1cc2c3c(c1)CCN3C(=O)CC2	-0.6%
64	COc1ccc(CCC(=O)NCc2ccc3c(c2)CCN3C(=O)c2ccccc2)cc1	6.6%
65	Fc1ccccc1-c1n[nH]c(=S)n1/N=C/c1c[nH]c2ccccc12	1.4%
66	Cc1ccc(-c2[nH]c3c(c2-c2c(-n4cccc4)n(C)c(=O)[nH]c2=O)c(=O)[nH]c(=O)n3C)cc1	1.6%
67	O/N=C1/CCCSc2ccccc21	3.4%
68	C/C(=N\NC(=O)c1cccnc1)c1ccc(Br)cc1	2.3%
69	O=C(c1ccccc1)c1ccc2nc(Nc3ccccc3Cl)c3nncn3c2c1	0.4%
70	O=c1cnnc(NCc2ccccc2)[nH]1	-22.6%
71	COc1ccc(-c2nn(-c3ccccc3)cc2C(=O)NC(=S)N2CCOCC2)cc1OC	-13.8%
72	CCc1ccc(CNC(=O)CCN2C(=O)COc3ccccc32)cc1	2.9%
73	COc1cccc2c(=O)cc(C)n(CC(=O)Nc3cccc(C)c3)c12	-5.4%
74	CCc1cc(C(=O)N2CCN(S(=O)(=O)c3ccccc3F)CC2)sc1C	23.7%
75	COc1ccc(CCNC(=O)NCc2noc3ccc(C)cc23)c(OC)c1	-0.9%
76	Cc1ccc(S(=O)(=O)N(C)C)cc1NC(=O)c1cc(=O)c2ccccc2o1	9.5%
77	NC(=O)N/N=C/c1c(F)cccc1F	-15.4%
78	CC(=O)C(=O)O	-0.5%
79	COCCN(Cc1ccccc1)C(=O)c1cc(-c2ccc(OC)c(OC)c2)nc2ccccc12	2.2%
80	CC(=O)N1CCC(N(CCN2CCOCC2)C(=S)Nc2cc(C)ccc2C)CC1	2.4%

VDR inhibitor: what is marked active above.
entry	SMILES	VDR inhibitor
52	c1ccc(Oc2c3ccccc3nc3ccccc23)cc1	44.7µM*

More results follow.
entry	SMILES	VDR inhibitor
81	COc1ccc(OC)c(N(CC(=O)Nc2ccc(NC(C)=O)cc2)S(C)(=O)=O)c1	2.9%
82	CC1CCCCC1NC(=O)/C(C#N)=C/C=C/c1ccccc1[N+](=O)[O-] (centres undefined)	-25.5%
83	CCC(=O)Nc1cccc(C(=O)OCc2cc(=O)n3nc(CC)sc3n2)c1	7.6%
84	Cn1c(=O)c2c(SCC(=O)NCC3CCCO3)nc(-c3cccc(F)c3)nc2n(C)c1=O (centres undefined)	6.7%
85	N=c1c(C(=O)NC2CCCC2)cc2c(=O)n3ccccc3nc2n1CCCN1CCOCC1	1.6%
86	CC(=O)/C=C1\N(C)c2ccc(C)cc2C1(C)C	4.7%
87	Cc1ccc2nc(Nc3ccc4[nH]c(=O)[nH]c4c3)c(-n3nc(C)cc3C)nc2c1	4.4%
88	CCc1ccc(N(CC(=O)NC(C)(C)CC)C(=O)CCC(=O)Nc2nccs2)cc1	13.1%
89	Cc1ccc(CCNC(=O)CCn2c(=O)c3cccn3c3ccc(F)cc32)cc1	6.2%&2.5%
90	CCOC(CNc1ncnc2c1cnn2C)OCC	-3.7%
91	O=C(O)CCNc1ccc(NCCC(=O)O)c2c1C(=O)c1ccccc1C2=O	7.08µM*
92	O=c1[nH]c(CN2CCN(C/C=C/c3ccccc3)CC2)nc2ccccc12	-13.3%
93	Cc1ccccc1OCCC(=O)NNC(=O)c1ccccc1F	5.3%
94	COc1ccc(-c2cc(-c3ccc(OC)cc3)nc(-c3ccc4c(c3)NC(=O)CO4)c2)cc1	-1.0%
95	O=C(CC(Sc1n[nH]c(-c2ccccc2)n1)c1ccccc1)NCc1ccccc1 (centres undefined)	-20.7%
96	CCC(=O)N1CCc2cc(S(=O)(=O)CCC(=O)NCc3cccc(OC)c3)ccc21	2.8%&-7.0%
97	Cc1cccc(N2CCN(C(=O)c3ccc(-n4cncn4)c([N+](=O)[O-])c3)CC2)c1C	6.7%
98	CC(C)(C)NC(=S)NC(=O)C12CC3CCC(CC(C3)C1)C2	8.6%
99	O=C(Nc1cc(Cl)ncn1)c1ccccc1	-8.6%
100	CC(Cc1ccccc1)NC(=O)c1cc2ccccc2o1 (centres undefined)	-5.6%

Screen by screen, quoted from above:
VDR inhibitor, compounds 95–98: -20.7%, 2.8%&-7.0%, 6.7%, 8.6%

Additional entries
entry	SMILES	VDR inhibitor
101	COc1ccc(/C=C2\SC(N)=NC2=O)cc1	-9.8%
102	O=C(COCc1ccccc1)N[C@@H](Cc1ccc(O)cc1)C(=O)O	-20.9%
103	CCCCCOCC1CC(C/C(C)=N/Nc2nc(-c3ccccc3)cs2)C(=O)O1 (centres undefined)	?
104	CC(=Nc1ccccc1)C1=C(O)C(Cc2ccccc2)NC1=O (centres undefined)	?
105	COc1ccc(OC)c(S(=O)(=O)NCc2cc(-c3ccccc3)no2)c1	29.2%
106	COc1ccc(CN(C)C(=O)CCN=C2NS(=O)(=O)c3ccccc32)c(OC)c1	14.9%
107	CS(=O)(=O)N(CC(=O)Nc1ccc2c(c1)OCO2)Cc1ccc(Cl)cc1	-17.5%
108	COc1ccc(-c2cc(C(F)(F)F)n3nc(C(=O)NCCN4CCOCC4)cc3n2)cc1	-20.5%
109	COc1cc(C(C2C(=O)CC(C)(C)CC2=O)C2C(=O)CC(C)(C)CC2=O)cc(OC)c1OC	?
110	CCOc1ccccc1/C=N/NC(=O)c1nnn(-c2nonc2N)c1CN1CCC(C)CC1	-1.2%
111	COc1cc(NS(=O)(=O)c2cc(C(=O)N3CCN(C(C)=O)CC3)ccc2OC)cc(OC)c1	3.1%
112	O=C(Cn1cncn1)c1ccc(Cl)cc1	-4.9%
113	CCN(CC(=O)NCCc1ccccc1)S(=O)(=O)c1ccc(C)cc1	-16.8%
114	c1ccc2sc(NC3=NCN(C4CCCCC4)CN3)nc2c1	6.5%
115	O=C(Nc1ccccc1)N1CCC(O)(c2cccc(C(F)(F)F)c2)CC1	-7.9%
116	Cc1ccc(NC(=O)CNCc2ccccc2Cl)cc1S(=O)(=O)N(C)C	0.2%
117	CC(C)(C)OC(=O)C[C@H]1C/C=C\C[C@@H](CC(=O)N[C@@H](CO)Cc2ccccc2)C(=O)NC[C@@H](c2ccccc2)OC1=O	0.8%
118	CCC/C(=N\NC(=O)C1CCCC1)c1ccccc1	-5.9%
119	Cc1ccccc1NC(=O)c1cc(C(=O)c2cc(Cl)ccc2O)cn(-c2ccccc2C)c1=O	-13.8%
120	CC(C)NC(=S)N/N=C1\CCCc2ccccc21	6.5%
121	COCCCn1c(=S)[nH]c2sc3c(c2c1=O)CCCS3	3.2%
122	Cc1cc(SCC(=O)c2ccccc2)nc(C)n1	-0.5%
123	O=C(COC(=O)c1ccccc1[N+](=O)[O-])Nc1cccnc1Cl	16.4%
124	O=C(CNC(=O)c1cccs1)N/N=C/c1cccc(Cl)c1	15.4%
125	COc1cccc(N2C(=O)Nc3ccc(Br)cc3C2(O)C(=O)NCCCOC(C)C)c1 (centres undefined)	5.9%

Some of these compounds in order of their number in VDR inhibitor, descending.
entry | structure | VDR inhibitor
123 | O=C(COC(=O)c1ccccc1[N+](=O)[O-])Nc1cccnc1Cl | 16.4%
124 | O=C(CNC(=O)c1cccs1)N/N=C/c1cccc(Cl)c1 | 15.4%
125 | COc1cccc(N2C(=O)Nc3ccc(Br)cc3C2(O)C(=O)NCCCOC(C)C)c1 (centres undefined) | 5.9%

Not all compounds are listed; the hit share may differ from the screen's.
